Compound activity: PubChem BioAssay, several laboratories
Mtb hypoxia rep – PubChem AID 1159583 | M. tuberculosis hypoxia-regulated fluorescent reporter, fluorescence | fluorescence inhibition, % (test concentration not listed) | 300,000 tested, 0.1% active;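 active = 35 to 45% if threefold the growth effect, above 45% if 1.5-fold the growth effect; inactive = the rest, general growth blockers included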;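 note: wells of about 50 µL received 100 nL stock; 0% = vehicle wells and 100% = reference inhibitor wells; whole bacteria with a GFP reporter of the hypoxia response; strong numbers were not always called active; many hits fall short of the cut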
RN4220 kill – growth inhibition of S. aureus RN4220, primary screen, OD600; 16 h; inhibition, % (test concentration not listed); 330,000 tested, 0.33% active; AID 1259311, 2017;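 active = z-score of -3 or lower and OD600 up to 0.18 on both plates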;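 note: plate controls were untreated cells for no effect and reference antibiotic for full effect; stock transfer was 100 nL into about 80 µL; one replicate is shown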
ugtP null kill – growth inhibition of ugtP-null S. aureus, primary screen, RN4220 ugtP deletion, OD600; 16 h; some inactives read as strong as hits; growth inhibition, % (concentration not given with the values); 330,000 tested, 0.54% active; AID 1259309, 2017;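 active = z-score under -3 and OD600 up to 0.15 on both plates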;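 note: plate controls were untreated wells for no effect and antibiotic for full effect; wells of about 80 µL received 100 nL stock; the first replicate is given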
Bead autofluor – counter-screen for toxin protease inhibitors: compound fluorescence; compound autofluorescence counterscreen, microsphere flow cytometry; stronger effect = higher value; fluorescence intensity (test concentration not listed); 360,000 tested, 3.1% active; AID 624483;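 active = at least 3 SD above the mean of all compounds, about 16000 in these data; inconclusive = too few beads counted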;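 note: 100 nL of 1 mM stock went into each well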
PrP UTR inh – inhibition of PrP 5' UTR reporter expression; inhibition, % (no concentration beside the values); cell-based PrP 5' UTR mRNA reporter, plate reader; AID 488862, 2010; 340,000 tested, 0.35% active;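 active = every replicate at 50% or more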;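 note: 0 = median of the neutral control wells; tested in H4 reporter cells; numbers are from one replicate; inactives centre near -14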
BJeLR viability – MLPCN primary cell-based screen for lethality selective to Ras in HRASV12 cells; 300,000 tested, 0.17% active; inhibition, % (test concentration not listed); BJeLR (HRASV12) viability, CellTiter-Glo ATP luminescence, 48 h; reference of the scale not given here; AID 1554, 2009;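 active = replicate mean above 50%; inconclusive = above 50% but judged a plate artefact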;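 note: 50 nL library stock added to about 25 µL; numbers are from one replicate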
Mtb hypoxia rep growth – recorded beside Mtb hypoxia rep, whose call it bears; growth inhibition, %; measured here: M. tuberculosis growth (absorbance);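 0% = vehicle and 100% = reference antibiotic; read after six days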
Active calls of the source: *; & = joins results of further samples.

Screening CC1(C)CC(=O)C=C(NNC(=O)c2ccc(N)cc2)C1 returned Mtb hypoxia rep 16, RN4220 kill 3.6, ugtP null kill 16, Bead autofluor 2115, PrP UTR inh -8, BJeLR viability -10 and Mtb hypoxia rep growth 3.
`CN(C(=O)C1CCCN1S(=O)(=O)c1ccc(Cl)cc1)c1ccccc1` (stereo unspecified) gave Mtb hypoxia rep -1, RN4220 kill 4.9, ugtP null kill 13, Bead autofluor 7943, PrP UTR inh -30 and Mtb hypoxia rep growth 2.
For CCCOc1ccc(N2C(=O)C3ON(c4ccccc4)C(c4ccc(O)c(OC)c4)C3C2=O)cc1 (stereo unspecified) the results were Mtb hypoxia rep 5, RN4220 kill 2.6, ugtP null kill 3, Bead autofluor 2723, PrP UTR inh -3, BJeLR viability -3 and Mtb hypoxia rep growth 1.
O=[N+]([O-])c1ccc(C=NNC(=S)Nc2ccccc2)o1 was read as Mtb hypoxia rep 7, RN4220 kill 17, ugtP null kill -1 and Mtb hypoxia rep growth 13.
Screening COC(=O)c1ccc(C(=O)Nc2nc3cc(N)c(C)cc3s2)cc1 returned Mtb hypoxia rep 9, RN4220 kill 2.4, ugtP null kill 0, Bead autofluor 3674, PrP UTR inh -33, BJeLR viability -6 and Mtb hypoxia rep growth 1.
Screening Cc1sc(NC(=O)/C=C/C(=O)O)c(C(N)=O)c1-c1ccc(C(C)(C)C)cc1 returned Mtb hypoxia rep 14, RN4220 kill 6.3, ugtP null kill 13, Bead autofluor 2016, PrP UTR inh -3, BJeLR viability 8 and Mtb hypoxia rep growth 5.
For COc1ccc(NC(=O)Nc2ccc3c(c2)C(=O)N(C(C)CO)CC(C)C(CN(C)S(=O)(=O)c2cccs2)O3)cc1 (stereo unspecified) the results were Mtb hypoxia rep -12, RN4220 kill 6.8, ugtP null kill -8 and Mtb hypoxia rep growth 5.
For COc1ccc(Cl)cc1NC(=O)CN(C)CC(=O)N(CC(C)C)c1c(N)n(CC(C)C)c(=O)[nH]c1=O the results were Mtb hypoxia rep 0, RN4220 kill 4.0, ugtP null kill 0, PrP UTR inh -25 and Mtb hypoxia rep growth 8.
COC(=O)Cn1cnc2c(Cl)nc(F)nc21 was read as Mtb hypoxia rep -1, RN4220 kill 2.2, ugtP null kill 1, Bead autofluor 3602, PrP UTR inh -2 and Mtb hypoxia rep growth 2.
`CCOc1ccccc1C(C(=O)NCCOC)N(CCOC)C(=O)Cn1nnc2ccccc21` (stereo unspecified) gave Mtb hypoxia rep 10, RN4220 kill 4.6, ugtP null kill 9, Bead autofluor 2742, PrP UTR inh -13, BJeLR viability -8 and Mtb hypoxia rep growth 1.

Reprinted from the part before: 3 compounds, followed by the next part.
For COc1ccc(Cl)cc1NC(=O)CN(C)CC(=O)N(CC(C)C)c1c(N)n(CC(C)C)c(=O)[nH]c1=O the results were Mtb hypoxia rep 0, RN4220 kill 4.0, ugtP null kill 0, PrP UTR inh -25 and Mtb hypoxia rep growth 8.
COC(=O)Cn1cnc2c(Cl)nc(F)nc21 was read as Mtb hypoxia rep -1, RN4220 kill 2.2, ugtP null kill 1, Bead autofluor 3602, PrP UTR inh -2 and Mtb hypoxia rep growth 2.
`CCOc1ccccc1C(C(=O)NCCOC)N(CCOC)C(=O)Cn1nnc2ccccc21` (stereo unspecified) gave Mtb hypoxia rep 10, RN4220 kill 4.6, ugtP null kill 9, Bead autofluor 2742, PrP UTR inh -13, BJeLR viability -8 and Mtb hypoxia rep growth 1.
For C/C(=N/N=C(/N)SCc1ccccc1)C(C)(C)C the results were Bead autofluor 4339, PrP UTR inh -17 and BJeLR viability 10.
`O=S(=O)(c1ccc(NCCOCCO)nc1)N1CCCCC1` gave Mtb hypoxia rep 11, RN4220 kill 2.2, ugtP null kill 1, Bead autofluor 4096, PrP UTR inh 3 and Mtb hypoxia rep growth 7.
For C#CCNC(=O)C1=CC(c2ccc3c(c2)OCO3)CC(OCCCCO)O1 (stereo unspecified) the results were Mtb hypoxia rep 12&19, RN4220 kill 5.7&4.8, ugtP null kill 2&-2 and Mtb hypoxia rep growth 9&10.
CCCCn1cc(C(C)(C)C)c(C#N)c1NC(C)=O was read as RN4220 kill 1.6, ugtP null kill 0, Bead autofluor 5636, PrP UTR inh -17 and BJeLR viability 6.
Screening CC1CCc2c(sc(NC(=O)CSc3nnc(-c4ccccc4)o3)c2C#N)C1 (stereo unspecified) returned Mtb hypoxia rep 18, RN4220 kill 8.9, ugtP null kill -7, Bead autofluor 2075, PrP UTR inh -4, BJeLR viability -8 and Mtb hypoxia rep growth 12.
For O=C(c1cc2cc(Br)ccc2o1)N1CCOCC1 the results were Mtb hypoxia rep 9, RN4220 kill 1.9, ugtP null kill 14, Bead autofluor 2490, PrP UTR inh -9, BJeLR viability 5 and Mtb hypoxia rep growth 10.
Screening C[C@]12CCCCC1=CC(=O)C1C2CC[C@@]2(C)C1C[C@@H](F)[C@@H]2O (stereo partly specified) returned Mtb hypoxia rep 2, RN4220 kill 4.9, ugtP null kill 6, Bead autofluor 3432, PrP UTR inh -8 and Mtb hypoxia rep growth 4.
`Cc1ccc(C(=O)CN(C(=O)c2ccc(Cl)cc2)N2C(=O)CCC2=O)cc1` gave Mtb hypoxia rep 12, RN4220 kill 0.3, ugtP null kill -1, Bead autofluor 3399, PrP UTR inh -8, BJeLR viability -6 and Mtb hypoxia rep growth 4.
O=C1CC(c2nc3ccccc3[nH]2)CN1c1ccccc1 (stereo unspecified) was read as Mtb hypoxia rep 14, RN4220 kill 7.8, ugtP null kill 7, Bead autofluor 9559, PrP UTR inh -21, BJeLR viability 1 and Mtb hypoxia rep growth 5.
Screening COC(=O)c1[nH]c(C)c(/C(O)=C2\C(=O)C(=O)N(CCN(C)C)C2c2ccccc2OC)c1C (stereo unspecified) returned Bead autofluor 3092, PrP UTR inh -11 and BJeLR viability -2.
For CC(=O)c1nccs1 the results were Mtb hypoxia rep 8, RN4220 kill 3.3, ugtP null kill 2, Bead autofluor 5059, PrP UTR inh -23 and Mtb hypoxia rep growth 4.
Screening COc1ccc(C(=O)OCC(=O)N2CCCCC2)cc1[N+](=O)[O-] returned Mtb hypoxia rep 15, RN4220 kill 11, ugtP null kill 3, Bead autofluor 4124, PrP UTR inh -7, BJeLR viability 5 and Mtb hypoxia rep growth 5.
Screening COC(=O)C(C)N1C(=O)S/C(=C/c2cc(C)n(C(C)C)c2C)C1=O (stereo unspecified) returned Mtb hypoxia rep 6, RN4220 kill -1.4, ugtP null kill 4, Bead autofluor 4068, PrP UTR inh -108, BJeLR viability -5 and Mtb hypoxia rep growth 5.
`NC(=O)C1CCN(C(=O)c2ccc(-c3ccccc3Cl)o2)CC1` gave Mtb hypoxia rep 10, RN4220 kill 7.6, ugtP null kill -7, Bead autofluor 8769, PrP UTR inh -39 and Mtb hypoxia rep growth 1.
Screening CC1C(=O)NN=C1C(=O)NN=C/C(Br)=C/c1ccccc1 (stereo unspecified) returned Mtb hypoxia rep -6, RN4220 kill 1.7, ugtP null kill 1 and Mtb hypoxia rep growth 2.
For CCc1csc(CCNC(=O)C2CCC(=O)N(Cc3cccc(C(F)(F)F)c3)C2)n1 (stereo unspecified) the results were Mtb hypoxia rep 9, RN4220 kill 1.1, ugtP null kill 6, Bead autofluor 6199, PrP UTR inh -7, BJeLR viability -10 and Mtb hypoxia rep growth 9.
Screening CC(=O)Oc1cccc(N2C(=O)CC(Nc3ccc(N4CCOCC4)cc3)C2=O)c1 (stereo unspecified) returned RN4220 kill 1.9, ugtP null kill 5, Bead autofluor 3987, PrP UTR inh -9 and BJeLR viability 1.
O=C(Cn1nc(-c2ccccc2Cl)ccc1=O)Nc1ccccc1-c1ccccc1 was read as Mtb hypoxia rep -13, RN4220 kill -9.3, ugtP null kill -1, Bead autofluor 3426, PrP UTR inh -20, BJeLR viability -4 and Mtb hypoxia rep growth -5.
CCc1ccccc1NC(=O)c1cc([N+](=O)[O-])ccc1N1CCOCC1 was read as Mtb hypoxia rep -2, RN4220 kill 1.1, ugtP null kill 0, Bead autofluor 6321, PrP UTR inh -5, BJeLR viability 13 and Mtb hypoxia rep growth 4.
Cc1ccc(C(=O)N/N=C/c2ccc(OC(=O)c3ccccc3Cl)cc2)cn1 was read as Bead autofluor 3023, PrP UTR inh -26 and BJeLR viability 6.
CC(=O)OC(C(=O)NCCc1ccccc1)c1cccnc1 (stereo unspecified) was read as Mtb hypoxia rep -3, RN4220 kill 6.1, ugtP null kill 3, Bead autofluor 3159, PrP UTR inh 0, BJeLR viability -1 and Mtb hypoxia rep growth -10.
For CCOc1ccc(C(=O)NCCCn2ccnc2)cc1 the results were Mtb hypoxia rep 4, RN4220 kill 2.4, ugtP null kill -1, Bead autofluor 4025, PrP UTR inh -18, BJeLR viability -9 and Mtb hypoxia rep growth 8.
Cc1nc2ccc(NC(=O)c3ccc(S(=O)(=O)N(C)C)cc3)cc2s1 was read as Mtb hypoxia rep 2, RN4220 kill 2.4, ugtP null kill 5, Bead autofluor 3377, PrP UTR inh 10, BJeLR viability -4 and Mtb hypoxia rep growth 5.
Cc1ccc(/C=C/C(=O)NC(C)c2ccccc2)cc1 (stereo unspecified) was read as Mtb hypoxia rep -5, RN4220 kill -1.6, ugtP null kill 2, Bead autofluor 2040, PrP UTR inh -20, BJeLR viability 1 and Mtb hypoxia rep growth 9.
CNC(=O)C(=O)N/N=C/c1ccccn1 was read as Bead autofluor 2246, PrP UTR inh -14 and BJeLR viability 3.
`COc1cc2nc(C3CC3)n(NC(=O)c3ccc(F)cc3)c(=O)c2cc1OC` gave Mtb hypoxia rep 14, RN4220 kill 4.1, ugtP null kill 7, Bead autofluor 24457*, PrP UTR inh -15, BJeLR viability -12 and Mtb hypoxia rep growth 3.
For COc1ccccc1NC(=O)c1ccc2nc(N3C(=O)CCC3=O)sc2c1 the results were Mtb hypoxia rep 5, RN4220 kill 2.0, ugtP null kill -10, Bead autofluor 8813, PrP UTR inh -28, BJeLR viability 4 and Mtb hypoxia rep growth 8.
`COc1ccc(CCN(C)C(=O)c2cc(S(=O)(=O)NCc3ccccc3)ccc2C)cc1OC` gave Mtb hypoxia rep -10, RN4220 kill 2.3, ugtP null kill -1, Bead autofluor inconclusive, PrP UTR inh -2, BJeLR viability 3 and Mtb hypoxia rep growth 9.
CC1CCN(C(=O)CCNS(=O)(=O)c2ccc3c(c2)oc(=O)n3C)CC1 was read as Mtb hypoxia rep 9, RN4220 kill 2.3, ugtP null kill 15, Bead autofluor 5421, PrP UTR inh -20, BJeLR viability 17 and Mtb hypoxia rep growth 7.
`CCOc1cc(S(=O)(=O)Nc2ccc(Cl)cn2)ccc1F` gave RN4220 kill 15, ugtP null kill -7, Bead autofluor 3706, PrP UTR inh -24 and BJeLR viability -6.
For CCN(c1ccccc1)S(=O)(=O)c1ccc(C(=O)N2CCOCC2)cc1 the results were Mtb hypoxia rep 16, RN4220 kill 7.4, ugtP null kill 1, Bead autofluor 3909, PrP UTR inh -22 and Mtb hypoxia rep growth 2.
COC(=O)C1=C(C)OC(N)=C(C#N)C1c1ccc(OC)c(CSc2ccccn2)c1 (stereo unspecified) was read as Mtb hypoxia rep 8, RN4220 kill 6.2, ugtP null kill 4, Bead autofluor 4360, PrP UTR inh -36, BJeLR viability 0 and Mtb hypoxia rep growth 3.
Screening O=C(NCCOc1cccnc1)C1CCC(=O)N(Cc2ccccc2F)C1 (stereo unspecified) returned Mtb hypoxia rep 1, RN4220 kill 1.8, ugtP null kill 10, Bead autofluor 5605, PrP UTR inh 1, BJeLR viability 4 and Mtb hypoxia rep growth -1.
Nc1cc(=O)[nH]n1C1CCN(c2ccccc2)CC1 was read as RN4220 kill 1.9, ugtP null kill 8, Bead autofluor 3426, PrP UTR inh -11 and BJeLR viability 5.
`COc1ccc(/C=N/Nc2nc(-c3ccc(C)cc3)c(C#N)c(=O)[nH]2)cc1` gave Bead autofluor 3693, PrP UTR inh -22 and BJeLR viability -7.
Screening O=C(Nc1ccc(C(=O)N2CCC(N3CCCC3)CC2)cc1)c1ccc(Br)o1 returned Mtb hypoxia rep -4, RN4220 kill 6.1, ugtP null kill 0, Bead autofluor 3885, PrP UTR inh -43 and Mtb hypoxia rep growth -9.
Screening CCOc1ccccc1Nc1ccc(C(=O)O)cc1N returned Mtb hypoxia rep 2, RN4220 kill 1.2, ugtP null kill -4, Bead autofluor 3629, PrP UTR inh -10, BJeLR viability -11 and Mtb hypoxia rep growth -4.
